# Rce1 inhib = yeast Ras-converting enzyme inhibition. yeast membranes, quenched prenylated peptide cleavage fluorescence. 290,000 compounds, 0.27% hits. Q03530. calls only;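 active = fall in fluorescence gain of 50% or more versus controls, with final raw signal at or below 3038400; inconclusive = same 50% fall but final raw signal above 3038400; inactive = fall in fluorescence gain under 50%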;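 also: plate controls were neutral control wells for no effect and wells lacking membranes for full effect; tested at 10 µM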
# eIF4H inh = inhibitors of RNA binding by human eIF4H; eIF4H fluorescence polarization binding assay; inhibition, % at 35 µM; 290,000 compounds, 0.94% hits; AID 2012;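 active = 50% or more with normal probe brightness, or confirmed in later tests; inconclusive = above 50% with abnormal brightness, or retests that disagree; inactive = below 50% or failed in later tests; about a fifth of its hits are not listed in these tables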;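 also: calls also rest on retests at 20 µM and on dose response follow-up; 0% = protein and probe with vehicle and 100% = probe without protein; strong numbers were not always called active; many hits fall short of the cut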
# HIV Env fusion = HIV envelope-mediated fusion inhibition; HeLa-JRFL Env/CEM21 cell fusion, luciferase; inhibition, % at 12.3 µM; 360,000 compounds, 1.1% hits;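 active = mean replicate inhibition score of at least 50 and every replicate individually at or above 50; inconclusive = only one of the two criteria met; inactive = mean below 50 and not all replicates reaching 50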;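 also: 0% = plate neutral controls and 100% = maraviroc near 300 nM; one replicate is shown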
# PABP FP inh = blocks human PABP binding to poly(A) RNA | P11940 | fluorescence polarization | inhibition, % at 35 µM | 290,000 compounds, 1% hits | AID 2014;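 active = 50% or more with normal probe brightness, or confirmed in later tests; inconclusive = above 50% with abnormal brightness, or retests that disagree; inactive = below 50% or failed in later tests; about a fifth of its hits are not listed in these tables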;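 also: calls also rest on retests at 20 µM and on dose response follow-up; controls were probe without protein and protein plus probe with vehicle; some compounds called inactive have numbers as strong as hits; many hits fall short of the cut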
# Target sequence (P11940 whole entry, looked up): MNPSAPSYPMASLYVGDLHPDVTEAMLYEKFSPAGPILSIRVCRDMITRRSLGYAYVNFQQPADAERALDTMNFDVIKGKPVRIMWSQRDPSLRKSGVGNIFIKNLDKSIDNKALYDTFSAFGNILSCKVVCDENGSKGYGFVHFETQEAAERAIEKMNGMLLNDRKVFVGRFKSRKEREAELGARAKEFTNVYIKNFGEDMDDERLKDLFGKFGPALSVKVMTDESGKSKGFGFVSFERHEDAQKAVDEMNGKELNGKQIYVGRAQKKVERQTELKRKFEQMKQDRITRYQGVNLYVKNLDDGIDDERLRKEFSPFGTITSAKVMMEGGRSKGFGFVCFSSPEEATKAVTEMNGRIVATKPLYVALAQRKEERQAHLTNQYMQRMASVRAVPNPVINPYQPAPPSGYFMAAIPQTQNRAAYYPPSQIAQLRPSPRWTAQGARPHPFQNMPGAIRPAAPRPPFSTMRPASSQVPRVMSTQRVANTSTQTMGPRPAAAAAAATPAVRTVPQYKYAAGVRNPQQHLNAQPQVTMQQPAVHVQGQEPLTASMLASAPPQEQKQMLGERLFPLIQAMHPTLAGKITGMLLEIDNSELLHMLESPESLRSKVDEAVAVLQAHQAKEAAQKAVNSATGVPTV
# MT1-MMP act inh = inhibitors of human MT1-MMP activation; P50281; HT1080 RFP-PRO-GFP cells, GFP/RFP ratio fluorescence, overnight; percent of plate control window, DMSO zero; GFP/RFP ratio change, % at 20 µM; 360,000 compounds, 0.061% hits; AID 651647;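 active = GFP/RFP ratio change of at least 30% with cell ATP level not reduced by more than half and red fluorescence within 50% of control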; also: strong numbers were not always called active
#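 Assay system: HT1080 RFP-PRO-GFP cells. Benchmarks: DMSO vehicle wells and RFP-L50D-GFP reporter cell wells. Times: overnight cell settling, then overnight compound exposure, 37 °C, 5% CO2. Compound: 20 µM single dose, 1% DMSO. Read-out basis: GFP/RFP fluorescence ratio.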
# CSC inhib = blocks cancer stem cells; 300,000 compounds, 1.1% hits; inhibition, % at 7.5 µM; cancer stem cell-like cells viability, luminescence;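 active = mean at 75% or more and at least half the replicates too; inconclusive = mean and replicates disagree; tested in HMLE shEcad cells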;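 also: 0% = median of negative and 100% = median of positive control wells; the first replicate is given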
# Yeast UUG start = modulators of start codon recognition fidelity in yeast. S. cerevisiae UUG-firefly luciferase reporter, luminescence/redox ratio. activity score, % at 18.7 µM. 350,000 compounds, 0.13% hits. AID 602363;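 active = replicate mean at a twofold rise or more, about +100% in these data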;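 also: firefly luciferase made from a UUG start codon reports start codon fidelity; reporter light over untreated wells divided by growth signal over untreated wells; some hits fall short of that in this replicate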
# eIF4H inh retest = also measured in eIF4H inh; calls as there; inhibition, %; compound at 20 µM; confirmation average;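 mean of two retest wells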
# PABP FP inh retest = recorded beside PABP FP inh, whose call it bears; inhibition, %; compound at 20 µM; confirmation repeats;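 mean of two retest wells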
# MT1-MMP act inh RFP = also measured in MT1-MMP act inh; calls as there; RFP signal change, %; measured here: RFP expression control read;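 0 = vehicle wells; hits needed this value within 50% of zero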
# * marks the source's active call; other numbers are inactive results; i = inactive; ? = inconclusive; . = not tested or not shown.
SMILES,Rce1 inhib,eIF4H inh,HIV Env fusion,PABP FP inh,MT1-MMP act inh,MT1-MMP act inh RFP,CSC inhib,Yeast UUG start,others
Cc1cc(C)n2nc(SC(C)C(=O)N3CCC4(CC3)OCCO4)nc2n1 (stereo not given),i,-3,-3,-14,0,6,0,-10,
CN1CCN(Cc2cc(C(C)(C)C)c(O)c(C(C)(C)C)c2)CC1,i,-1,-7,43,-3,4,1,-2,
Cc1cc(OCC(=O)OC(C)(C)C)c2c3c(c(=O)oc2c1)CCC3,i,-8,-26,-1,-1,0,-15,-8,
COC(=O)C1=C(c2cccc(OC)c2OC)C[C@@H]2CC[C@H]1N2C,.,.,24,.,-1,2,-9,-21,
CCOC(=O)[C@@]12C(=O)C(=O)N[C@]1(c1ccccc1)C1OCCCC12 (stereo not given in full),i,6,-12,-6,4,3,-7,.,
COc1ccc(CCNCc2ccncc2)cc1OC,i,3,.,3,-5,5,-12,-20,
COc1ccccc1N=Cc1c(O)n(C)c(=O)n(C)c1=O,i,-4,-49,-18,-5,-6,-3,3,
O=C(O)[C@H]1C[C@@H]1[C@H](NP(=O)(c1ccccc1)c1ccccc1)c1ccccc1,i,-4,25,4,-5,-1,-3,3,
O=[N+]([O-])c1c(Cl)c(Cl)c(Cl)c(Cl)c1Cl,.,.,0,.,9,3,.,-12,
CN1C2CCC1/C(=C/c1ccccn1)C(=O)/C2=C\c1ccccn1,.,70,60*,-2,-38,-37,38,-6,eIF4H inh retest=-6;PABP FP inh retest=-2
O=S(=O)(NC1CCCC1)OCC(Cl)(Cl)Cl,i,-10,-20,-1,1,2,-2,-20,
COc1ccc2c(C)c(CCC(=O)N3C[C@H]4C[C@@H](C3)c3cccc(=O)n3C4)c(=O)oc2c1,i,-9,.,-9,4,5,0,0,
Nc1nnc(P(c2ccccc2)c2ccccc2)s1,i,-5,5,6,-1,-2,-2,-12,
Cc1ccc(N=Cc2c(O)n(C)c(=O)n(C)c2=O)cc1,i,-7,-1,-6,0,-1,4,-17,
CN1C2c3ccccc3C3C4c5ccccc5C(C31)C(C2[N+](=O)[O-])N4C (stereo not given),i,5,8,3,1,0,-9,-14,
CN(C)C(=O)O/N=C(\N)COc1ccc(C(C)(C)C)cc1,i,3,-18,4,-11,-25,-1,.,
COC(=O)C1=C(c2ccc(F)cc2OCc2ccccc2)C[C@@H]2CC[C@H]1N2C(=O)NCc1ccc(N(C)C)cc1,.,.,-19,.,1,-7,18,6,
CN(C)CC1CCCCC1OC(=O)Cc1ccc(Cl)c([N+](=O)[O-])c1 (stereo not given),i,-6,-16,36,0,1,-2,3,
C/C=C(\C)C(=O)OC1C(C)=C2C(C1OC(=O)CCCCC)C(C)(OC(C)=O)CC(OC(=O)CCC)C1(O)C2OC(=O)C1(C)O (stereo not given),i,24,.,10,.,.,101*,.,
O=c1nc(/C=C/c2ccc(Cl)cc2Cl)cc(C(F)(F)F)[nH]1,i,10,-10,8,-6,-9,108*,-18,
O=Cc1c(C(=O)O)n(Cc2ccccc2F)c2ccccc12,i,-2,-26,4,-10,-1,-7,-8,
CNC(=S)N1CC2CC(C1)c1cccc(=O)n1C2 (stereo not given),i,-9,4,0,9,7,-2,-17,
CC(=O)N1N=C2C3CCN(CC3)C2C1c1ccc(Br)cc1 (stereo not given),i,-1,2,5,-2,0,11,.,
COC(=O)C(O)(c1ccc(NC(=O)c2cccs2)cc1)C(F)(F)F (stereo not given),i,-6,-32,2,0,-1,-18,-13,
C=CCN1CCC2(C)c3cc(O)ccc3CC1C2C (stereo not given),i,.,9,.,-2,2,-8,1,
COP(=O)(OC)C(O)C(Cl)(Cl)Cl (stereo not given),i,-2,.,-11,.,.,-9,.,
Cc1nnc2ccc(-c3cccc(C(F)(F)F)c3)nn12,i,.,-90,.,5,8,-4,2,
CNc1ccc2oc(C[C@H]3O[C@@]4(CC[C@H]3C)O[C@H]([C@H](C)C(=O)c3ccc[nH]3)[C@H](C)C[C@H]4C)nc2c1C(=O)O,i,17,90*,2,-10,-31,106*,-14,
C[C@]12CCC3C(CC[C@@H]4C[C@H](O)CC[C@]34C)C1CCC2=O (stereo not given in full),.,.,-3,.,-1,2,-3,5,
CN(C)CCN(CC1CCCN(Cc2ccccc2F)C1)C(=O)Cc1ccccc1F (stereo not given),i,-7,-17,8,3,3,16,-4,
Cc1ccc(/C=C2/C(=O)NC(=O)N(CCc3ccc(F)cc3)C2=O)s1,i,?,-10,-5,1,7,12,-12,
CCN1CCN(c2ccc(NC(=O)C(C)C)cc2Cl)CC1,i,-12,.,-9,-1,1,0,-19,
O=C(O)CCCc1ccc(N(CCCl)CCCl)cc1,i,25,-15,-1,1,6,8,11,
Cc1ccsc1C(=O)C1CCCN(Cc2cc3ccccc3o2)C1 (stereo not given),i,3,13,-2,0,-1,15,-15,
CCOP(=S)(OCC)c1ccc(N(C)C)cc1,i,-8,17,-2,1,1,-6,-9,
Cc1oc2ccc(OC(=O)N(C)C)cc2c1C(=O)OC(C)C,i,-7,26,16,-3,-5,-8,-7,
CCC(C)/C=C(C)/C=C/C1=CC2=C(Cl)C(=O)C(C)(OC(C)=O)C(=O)C2=CO1 (stereo not given),i,11,.,27,7,3,-9,1,
CCN(CC)C(=O)Cn1cc(/C=C2\C(=O)NC(=O)N(c3ccccc3F)C2=O)c2ccccc21,i,11,-113,8,-7,1,22,-5,
COc1ccccc1C(=O)C1CCCN(Cc2cnc(C)s2)C1 (stereo not given),i,-6,5,-9,5,0,9,-14,
CNCC(O)c1cccc(OC(=O)c2ccccc2C)c1 (stereo not given),i,-10,.,9,0,10,-19,-7,
CCC12CN3CCN(CC(C3)/C1=N/NC(N)=O)C2,i,0,-12,6,0,1,-12,-3,
O=c1cc(C2CCNCC2)[nH][nH]1,i,1,.,23,2,4,7,-1,
C[C@]12CCC3C(C(=O)C[C@H]4C[C@@H](O)CC[C@]34C)C1CCC2=O (stereo not given in full),.,.,18,.,1,2,-9,-14,
CC12Cc3cnoc3C=C1CCC1C2CCC2(C)C1CCC2(C)O (stereo not given),.,.,35,.,-3,-13,.,-10,
O=c1[nH]c(=S)n(C2CC2)c(O)c1/C=N/Nc1ccccc1,i,0,-36,-3,61*,42*,-2,-8,

# Retrieved one by one from the entries so far, 4 records:
SMILES,Rce1 inhib,eIF4H inh,HIV Env fusion,PABP FP inh,MT1-MMP act inh,MT1-MMP act inh RFP,CSC inhib,Yeast UUG start,others
CCC(C)/C=C(C)/C=C/C1=CC2=C(Cl)C(=O)C(C)(OC(C)=O)C(=O)C2=CO1 (stereo not given),i,11,.,27,7,3,-9,1,
Cc1nnc2ccc(-c3cccc(C(F)(F)F)c3)nn12,i,.,-90,.,5,8,-4,2,
CNc1ccc2oc(C[C@H]3O[C@@]4(CC[C@H]3C)O[C@H]([C@H](C)C(=O)c3ccc[nH]3)[C@H](C)C[C@H]4C)nc2c1C(=O)O,i,17,90*,2,-10,-31,106*,-14,
Cc1ccc(/C=C2/C(=O)NC(=O)N(CCc3ccc(F)cc3)C2=O)s1,i,?,-10,-5,1,7,12,-12,

# The listing continues.
SMILES,Rce1 inhib,eIF4H inh,HIV Env fusion,PABP FP inh,MT1-MMP act inh,MT1-MMP act inh RFP,CSC inhib,Yeast UUG start,others
CCCCCCn1c(=O)c(C(=O)Nc2nnc(C)s2)c(O)c2ccccc21,i,-2,.,-7,.,.,25,.,
CCOC(=O)C1CCN(Cc2ccc(Cl)nc2)CC1,i,0,8,12,3,6,1,-24,
C[C@H]1CCC/C=C/C2C[C@H](O)CC2[C@H](O)/C=C/C(=O)O1 (stereo not given in full),i,4,.,2,2,-31,113*,-40,
CCOCC(=O)NC1CCSC1=O (stereo not given),i,3,7,7,12,7,-11,-12,
Cn1cc(C=C2C(=O)NC(=O)NC2=O)c2ccccc21,i,?,-21,?,-8,0,-9,-11,
CC(=O)Nc1ccc([As](=O)(O)c2ccc([N+](=O)[O-])cc2)cc1,i,9,2,-2,4,4,6,.,
CN1CCC2(CC1)c1ccccc1-c1ccccc12,.,.,9,.,-8,0,.,-6,
CN1CCN(Cc2cn(C)c3ccccc23)CC1CCO (stereo not given),i,-3,4,-5,3,-1,-15,-14,
O=C1NCN(c2ccccc2)C12CCN(C(CCc1ccccc1)c1nnnn1C1CCCC1)CC2 (stereo not given),.,.,0,.,-1,-10,.,-5,
O=c1[nH]c(=S)n(Cc2ccc(F)cc2)c(O)c1C=NCc1ccc2c(c1)OCO2,.,-3,-3,-2,6,4,1,.,
COc1ccc(CC2C(=O)NC(=O)N(c3ccccc3)C2=O)c(OC)c1 (stereo not given),i,-3,.,1,-1,4,5,-10,
COc1ccccc1-n1c(-c2ccccc2F)nc2ccccc2c1=O,i,.,-11,.,-1,1,10,.,
O=c1[nH]c(=S)n(CCC2=CCCCC2)c(O)c1C=NCc1cccnc1,i,7,-8,0,5,4,7,-5,
CC(=O)c1c(C)n(CCCOC(C)C)c2ccc(O)cc12,i,13,.,4,3,-3,6,.,
Cc1ccc(OCC(=O)N2CCN(C3CCC(c4ccccc4)CC3)CC2)cc1 (stereo not given),i,-6,-3,1,5,3,44,.,
Cc1cc(OCc2nn[nH]n2)c2c3c(c(=O)oc2c1)CCC3,i,-13,-15,21,-1,1,-11,-13,
CN1CC2CN(Cc3ccccc3)S(=O)(=O)C2C1 (stereo not given),.,.,14,.,2,5,.,-3,
COC(=O)C1=C(c2ccc(F)cc2OCc2ccccc2)C[C@@H]2CC[C@H]1N2C(=O)N1CCCC1,.,.,10,.,-6,0,-15,-7,
O=C(CCC(=O)N1CC2C[C@@H](C1)Cn1c2cccc1=O)NCCc1ccccc1,i,2,.,-9,0,1,-2,-15,
O=C(COC(=O)c1ccc(O)cc1)Nc1ccc(Cl)cc1C(=O)c1ccccc1,i,-8,6,-4,-7,-3,7,.,
CNC(=S)NC1CC2CCCC(C1)N2CC(C)C (stereo not given),i,4,.,-8,5,-4,-24,-7,
C[C@@H]1CC[C@@]2(NC1)O[C@H]1C[C@H]3[C@@H]4CC=C5C[C@@H](O)CC[C@]5(C)[C@H]4CC[C@]3(C)[C@H]1[C@@H]2C,i,-19,.,0,-1,3,8,-11,
CCOC(=O)c1ccccc1NC(=O)c1c(O)[nH]c(=S)[nH]c1=O,i,.,12,.,5,3,-3,-13,
O=Cc1c(C(=O)O)n(Cc2ccc(F)cc2Cl)c2ccccc12,i,-8,13,-1,4,10,-3,-7,
COC(=O)C1=C(c2ccc(F)cc2OCc2ccccc2)C[C@@H]2CC[C@H]1N2C(=O)NCCO,.,.,.,.,-2,0,-3,-12,
CCCNC(=O)N1[C@H]2CC[C@@H]1C(C(=O)OC)=C(c1cc3ccccc3o1)C2,i,.,-10,.,4,-9,6,-12,
COC(=O)C1=C(c2ccc(OC(F)(F)F)cc2)C[C@@H]2CC[C@H]1N2C(=O)N1CCCCC1,.,.,75*,.,19,-25,1,6,
O=C1NC(=O)C(=Cc2ccc3c(c2)OCO3)C(=O)N1,i,15,11,12,.,.,3,.,
COC(=O)C1=C(c2ccccc2)C[C@@H]2CC[C@H]1N2C(=O)NCc1ccc(C(F)(F)F)cc1,i,.,15,.,7,2,2,3,
CC(O)(CS(=O)(=O)c1cccc(C(F)(F)F)c1)C(=O)Nc1ccc(C(F)(F)F)cc1 (stereo not given),i,-6,.,-6,3,-1,.,.,
COCCCn1c(N)c(C(=O)NCCC(C)C)c2nc3ccccc3nc21,i,2,3,7,-11,-2,40,-12,
N#CC(C#N)=NNc1ccc(S(N)(=O)=O)cc1,i,28,14,14,17,1,6,-6,

# Compound activity (PubChem BioAssay)

# An excerpt; the hit share may differ from the screen's.
